VDR inhibitor = blocks the human vitamin D receptor | P11473 | VDR-SRC2-3 peptide fluorescence polarization, 2 h | Potency, µM, for inactives: max response, negative = inhibition, usual class: inhibitors | actives 0.93% (n = 400,000); active means well fitted inhibition curve with a large enough effect; inconclusive means small, poorly fitted or top-dose-only effect, or another doubt; inactive means no such curve, though single readings can be large or run the other way; further: series mostly up to about 120 µM
Target sequence (P11473 whole entry, looked up): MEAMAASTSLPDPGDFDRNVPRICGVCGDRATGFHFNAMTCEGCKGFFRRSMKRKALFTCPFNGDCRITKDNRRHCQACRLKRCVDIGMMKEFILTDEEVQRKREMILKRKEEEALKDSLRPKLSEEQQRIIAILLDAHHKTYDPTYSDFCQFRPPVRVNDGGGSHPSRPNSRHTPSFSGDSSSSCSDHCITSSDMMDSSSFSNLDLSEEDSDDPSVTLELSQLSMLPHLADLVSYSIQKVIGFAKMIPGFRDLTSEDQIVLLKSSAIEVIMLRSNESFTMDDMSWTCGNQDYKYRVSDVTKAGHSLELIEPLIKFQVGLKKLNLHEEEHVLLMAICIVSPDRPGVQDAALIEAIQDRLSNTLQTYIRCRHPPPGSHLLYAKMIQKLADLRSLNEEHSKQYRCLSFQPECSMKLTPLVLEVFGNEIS
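Two reagent solutions held at 4 deg C in the dark were dispensed, compounds pinned at 23 nl, and the mixture incubated 2 h at room temperature. Read-out: fluorescence polarization of VDR–SRC2-3 peptide binding.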
Numbers without * were called inactive; ? = inconclusive; & = joins results of further samples; [ ] = dose if it differs, or a comment. On the % scale 0 is the no-effect control and ±100 the full control effect; potency means the concentration at half of the fitted maximal effect. These rows are one share of the data; the hit share may differ from the screen's.

SMILES	VDR inhibitor
Cc1ccc(C)c(Cn2nnc(C(=O)NCc3ccccc3)c2N)c1	-4%
Cc1cccc(C(=O)NCCCNC(=O)c2ccc(C)nc2)c1	-9%
CC(C)=C1SC(N2CCCCC2)=NC1=O	-10%
CCOC(=O)C1CCN(C2=NC(=O)/C(=C/c3ccccc3OC)S2)CC1	0%
O=C(Cc1ccccc1)NCCc1cnc[nH]1	4%
COc1ccc(N(CC(=O)NCCC2=CCCCC2)S(C)(=O)=O)cc1	-10%
CCOc1ncccc1C(=O)Nc1ccc(S(=O)(=O)NC2=NCCCCC2)cc1	-1%
Cc1cc(Br)ccc1NC(=O)CN1C(=O)C2C3CC(c4ccccc4)C(C3)C2C1=O (centres undefined)	5%
CC(C)c1cccc(C(C)C)c1OCCCCN1CCCC1	2%
C=CCn1c(=S)[nH]c2scc(-c3cccs3)c2c1=O	-7%
CC(C)C(=O)NC(=S)N(Cc1ccccc1)Cc1ccccc1	-7%
CCOC(=O)N/N=C/c1c(C)nn(-c2ccccc2Cl)c1Cl	8%
O=C(CCc1nc2ccccc2c(=O)[nH]1)NNC(=O)c1cccc(Cl)c1	-15%
O=C(NCCCn1ccnc1)c1cc2nc(-c3ccc(Br)cc3)cc(C(F)(F)F)n2n1	-6%
O=C(NCCO)C(O)C(O)C(=O)NCCO (centres undefined)	0%
O=C(CN(c1ccc(F)cc1)S(=O)(=O)c1ccc2c(c1)OCCO2)Nc1ccc2c(c1)OCO2	16%
COc1ccc(N2CC(C(=O)N[C@H](C(=O)NC3CCCC3)C(C)C)CC2=O)cc1 (some centres undefined)	-4%
O=C(NCc1ccccc1)C(c1ccccn1)N(C(=O)c1csnn1)c1ccccc1F (centres undefined)	12%
COc1ccc(N(C(C)C(=O)Nc2ccc(S(=O)(=O)N3CCCCC3)cc2)S(C)(=O)=O)cc1 (centres undefined)	40%[activator]
Cc1c(N2C(=O)/C(=C/c3cccc4ccccc34)SC2=S)c(=O)n(-c2ccccc2)n1C	-6%
CCNc1c(NC(=O)c2cccs2)c(=O)oc2ccccc12	32%[activator]
O=C(Nc1ccc(-c2ccc3nncn3n2)cc1)C1CCCC1	-10%
Cc1ccccc1C(=O)N1CCN(c2ccccn2)CC1	5%
COc1ccc(-n2nc(C(N)=O)nc2-c2ccccc2)cc1	-20%
CC(Sc1cn(CCNC(=O)c2ccccc2F)c2ccccc12)c1ccccc1 (centres undefined)	0%

A second format for some results above.
| VDR inhibitor | smiles |
| --- | --- |
| 5% | Cc1cc(Br)ccc1NC(=O)CN1C(=O)C2C3CC(c4ccccc4)C(C3)C2C1=O (centres undefined) |
| 0% | O=C(NCCO)C(O)C(O)C(=O)NCCO (centres undefined) |
| -10% | CC(C)=C1SC(N2CCCCC2)=NC1=O |
| -9% | Cc1cccc(C(=O)NCCCNC(=O)c2ccc(C)nc2)c1 |

The list goes on:
SMILES	VDR inhibitor
Cc1cccc(OCC(=O)OCc2cc(=O)n3nc(-c4cccs4)sc3n2)c1	11%
Cc1cccc2[nH]c(CN(C)Cc3nc(CC4CC4)no3)nc12	-4%
CS(=O)(=O)N(CC(=O)NCc1ccncc1)Cc1ccc(Cl)cc1	-7%
CCn1c(SCC(=O)Nc2cccc(NC(=O)c3ccco3)c2)nnc1-c1cccs1	8%
CC(NC(=O)COC(=O)/C=C/c1ccc([N+](=O)[O-])cc1)c1ccccc1 (centres undefined)	-5%
O=Cc1ccc(Oc2cc(-c3ccccc3)nc(-c3ccccc3)n2)cc1	-18%
Cc1cccc(C(=O)Nc2ccc(NC(=O)c3ccccc3)cc2)c1	-9%
O=c1cc(O)nc(SCc2ccc(Cl)cc2)[nH]1	10%
Cn1c(=O)c2c(nc(NCCc3ccccc3)n2Cc2ccc(F)cc2)n(C)c1=O	9%
CC(C)C[C@@H](CC(=O)N[C@H](CC(=O)N[C@@H]1CCCC[C@H]1C(=O)N[C@H](CC(=O)N[C@@H](CCC(=O)O)CC(=O)O)Cc1c[nH]c2ccccc12)C(C)C)NC(=O)[C@@H]1CNCC[C@H]1N	4%
Cc1ccc(C)c(NC(=S)N2CCCC2)c1	-12%
CC(NC(=O)Cn1c(=O)[nH]c2ccsc2c1=O)C12CC3CC(CC(C3)C1)C2 (centres undefined)	-10%
CC(C)Cc1nnc(NC(=O)CCC(=O)N2CCN(Cc3ccc(Cl)cc3)CC2)s1	0%
Cn1c(=O)c2[nH]c(SCCN3CCOCC3)nc2n(C)c1=S	28µM*
COCCNC(=O)c1cc(-c2cccnc2)nc2ccc(Br)cc12	11%
COc1ccccc1N1CCN(Cc2nc(-c3ccc(F)cc3)oc2C)CC1	3%
COC(=O)CC1C(=O)NCCN1C(=O)CSc1nc2ccccc2o1 (centres undefined)	19%
COc1ccc(NC(=O)C2CCCN(c3cnccn3)C2)c(OC)c1 (centres undefined)	-5%&6%
CCOc1ccccc1NC(=O)N1CCCC1C(=O)Nc1ccc(NC(C)=O)cc1 (centres undefined)	9%
COc1ccc(-c2ccc(SCc3ccccn3)nn2)cc1OC	-9%
O=S(=O)(O)c1cc(O)c2c(N=Nc3ccc(Nc4ccccc4)c4c(S(=O)(=O)O)cccc34)cc(S(=O)(=O)O)cc2c1	40µM*
C=CCSc1nc(O)c(C2OC(=O)c3c2ccc(OC)c3OC)c(=O)n1-c1ccccc1 (centres undefined)	7%
CCN(CC)c1ccc(NC(=O)C2CCN(S(=O)(=O)c3c(C)noc3/C=C/c3ccccc3F)CC2)c(C)c1	4%
CC(C)(C)NS(=O)(=O)c1ccc2[nH]c3c(c2c1)CCCCC3	-14%
CCc1ccccc1N1C(=O)[C@@H]2Cc3ccccc3CN2C1=O	-22%

More entries.
SMILES	VDR inhibitor
CC(C)(C)OC(=O)N1CCC(CNC(=O)c2ccc(F)cc2F)CC1	1%
Cc1ccnc(NC(=O)CCC(=O)N(CC(=O)NCc2ccccc2)c2ccc3c(c2)OCO3)c1	-4%
CCOc1ccc2nc(NC(=O)C3(C)CC3(Br)Br)sc2c1 (centres undefined)	-6%
Cc1ccc2nc(-c3ccc(NC(=O)COc4ccc(Cl)c(C)c4)cc3)sc2c1	-11%
O=C(O)CCCc1nc(-c2ccccc2)no1	7%
O=C(NC1CCN(Cc2ccc3ccccc3c2)CC1)c1ccccc1	-1%
C=CCNC(=O)NC(=O)COC(=O)CC(NC(N)=O)c1ccc(Cl)cc1 (centres undefined)	-3%
O=c1oc2ccccc2c2nccnc12	-3%
CCCCNc1c(-c2ccc(SC3CCCCC3)c(OC)c2)nc2ccc(Cl)cn12	-28%
CCc1cc(=O)oc2c3c(cc(OCC(=O)NCc4ccccn4)c12)OC(C)(C)CC3	-22%
Cc1cc(C)cc(NC(=O)CSCn2nnc3c(=O)[nH]c(Cc4ccc(F)cc4)nc32)c1	-2%
O=C(NCCN1CCN(Cc2ccccc2)CC1)Nc1cc(Cl)cc(Cl)c1	-2%
Cc1cc(OCCCCCN2CCCC2)ccc1Cl	-18%
COC(=O)c1c(C)oc(C)c1S(=O)(=O)NCc1cccs1	?
CN(Cc1ccccc1)S(=O)(=O)c1ccc(F)c(C(=O)Nc2ccccc2C(F)(F)F)c1	6%
NS(=O)(=O)c1ccc(CCNC(=O)c2ccc[nH]c2=S)cc1	-17%
CCn1cc(S(=O)(=O)c2ccc(C)cc2C)c(=O)c2cc(F)c(N3CCCCC3)cc21	10%
COc1ccc(CC(=O)Nc2cccc(SC)c2)cc1OC	5%
O=C(C1=C[C@@H](c2ccc(C(F)(F)F)cc2)C[C@@H](OCCCCO)O1)N1CCCCCCC1	-3%
CN(C)C(=S)Nc1cccc(-c2n[nH]c(=S)o2)c1	-8%
CCOc1cc(/C=C(\C#N)C(=O)Nc2ccccn2)ccc1O	-14%
CCc1ccc(C(=O)c2cn(CC(=O)Nc3ccc4c(c3)OCO4)c3cc(OC)c(OC)cc3c2=O)cc1	-6%
CCOc1cc(C2NC(=O)NC(O)(C(F)(F)F)C2C(=O)c2ccc(OC)cc2)ccc1O (centres undefined)	-11%
CCOc1ccc2nc(N(Cc3cccnc3)C(=O)c3cccs3)sc2c1	3%
O=C(CN1C(=O)NC2(CCCCCC2)C1=O)NCc1ccc(Cl)cc1	-15%

Filtered by structure, those above containing a thiophene ring, fused or not.
SMILES	VDR inhibitor
C=CCn1c(=S)[nH]c2scc(-c3cccs3)c2c1=O	-7%
CCNc1c(NC(=O)c2cccs2)c(=O)oc2ccccc12	32%[activator]
Cc1cccc(OCC(=O)OCc2cc(=O)n3nc(-c4cccs4)sc3n2)c1	11%
CCn1c(SCC(=O)Nc2cccc(NC(=O)c3ccco3)c2)nnc1-c1cccs1	8%
CC(NC(=O)Cn1c(=O)[nH]c2ccsc2c1=O)C12CC3CC(CC(C3)C1)C2 (centres undefined)	-10%
COC(=O)c1c(C)oc(C)c1S(=O)(=O)NCc1cccs1	?
CCOc1ccc2nc(N(Cc3cccnc3)C(=O)c3cccs3)sc2c1	3%

The list continues:
SMILES	VDR inhibitor
Cc1cc(N2CCCCC2)nc(N)n1	-8%
Cc1sc2ncn(CC(=O)N(C)c3ccc(Br)cc3)c(=O)c2c1S(=O)(=O)N1CCC(C)CC1	-8%
O=C(Nc1ccc(S(=O)(=O)Nc2ccccn2)cc1)c1ccc(Cl)cc1Cl	22%
COc1ccc(CCNS(=O)(=O)c2ccc3oc(C(=O)O)c(C)c3c2)cc1OC	2%
Nc1nonc1-n1nnc(C(=O)N/N=C/c2ccccc2Cl)c1-c1ccccc1	-9%
Cc1ccc(C)c(OCC(=O)Nc2ccc(C(=O)O)cc2NC(=O)COc2cc(C)ccc2C)c1	-6%
CC1(C)CC(=S)Nc2ccccc2S1	?
O=C(c1cc(C(F)(F)F)cc(C(F)(F)F)c1)N1CCC[C@@]2(CCN(Cc3nccs3)C2)C1	-27%
C1=C(c2ccccc2)Nc2nnnn2C1c1cccs1 (centres undefined)	-1%
CCc1noc(C)c1C(=O)Nc1nnc(CC(C)C)s1	-1%
COc1ccc(OC)c(-c2csc(CCn3nc(C)cc3C)n2)c1	-1%
Cc1c(NC(=O)c2ccc(N3CCC(C)CC3)c([N+](=O)[O-])c2)cccc1-c1nc2ccccc2o1	-7%
O=C(Nc1nnc(SCc2ccccc2F)s1)C1=COCCO1	6%
CCn1cc(CN2CCC(n3nccc3NC(=O)C(OC)c3ccccc3)CC2)cn1 (centres undefined)	-16%
O=C(CSc1ccccc1F)NCCCN1CCCC1=O	-12%
CS(=O)(=O)c1ccc2nc(NC(=O)c3cc(-c4ccccc4)nn3-c3ccccc3)sc2c1	-3%
COc1cc(NC(=O)Cc2cccs2)ccc1-n1cnnn1	1%
O=C(Cn1ncc2c1-c1ccccc1OC2)Nc1nc2ccccc2s1	-12%
Nc1cc(N)nc(SCC(=O)Nc2ccc3c(c2)OCO3)n1	-8%
CC(=O)N1c2ccccc2Nc2ccccc21	-4%
CCC(O)c1nc2ccccc2n1CCOc1cc(C)cc(C)c1 (centres undefined)	3%
CN(C)C=Nc1nonc1N	13%
CC(C)(C)C(=O)CN1C(=O)C2(OCCO2)c2ccccc21	27%
O=C1CCCN1CN(C(=O)c1ccccc1)c1ccc(F)cc1	-6%
COc1cc2c(cc1OC)CN(C(=O)/C=C/c1ccc([N+](=O)[O-])cc1)CC2	5%

Taken from above:
In VDR inhibitor, CCn1c(SCC(=O)Nc2cccc(NC(=O)c3ccco3)c2)nnc1-c1cccs1 has 8%
In VDR inhibitor, COCCNC(=O)c1cc(-c2cccnc2)nc2ccc(Br)cc12 has 11%

Marked active in VDR inhibitor, among the entries above:
SMILES	VDR inhibitor
Cn1c(=O)c2[nH]c(SCCN3CCOCC3)nc2n(C)c1=S	28µM*
O=S(=O)(O)c1cc(O)c2c(N=Nc3ccc(Nc4ccccc4)c4c(S(=O)(=O)O)cccc34)cc(S(=O)(=O)O)cc2c1	40µM*

Later entries.
SMILES	VDR inhibitor
COc1ccc(S(=O)(=O)N2CCC(C(=O)NC(C)c3ccccc3)CC2)cc1 (centres undefined)	-3%
CCOC(=O)c1c(C)oc2nc(C)nc(NCCCN3CCN(c4ccccc4OC)CC3)c12	16%
CC(=O)N1CCOc2cc(S(=O)(=O)Nc3c(C)cccc3C(C)C)c(Cl)cc21	3%
COc1cccc(CN(C)CC(=O)Nc2sc3c(c2C#N)CCC3)c1OC	-24%
COC(=O)C1C(=O)C(C(=O)/C=C/c2ccccc2)C(=O)CC1(C)C (centres undefined)	-3%
O=C(c1c(F)cccc1F)N1CCCC(c2nc(-c3cccs3)no2)C1 (centres undefined)	10%
COc1ccc(NC(=O)CSc2nnc(-c3ccccn3)n2-c2ccccc2)cc1OC	-4%
c1ccc(-c2nnn(C34CC5CC(CC(C5)C3)C4)n2)cc1	-11%
Cc1cc2c(=O)n(CC(=O)NCC(=O)Nc3ccc(C(C)C)cc3)cnc2s1	8%
CCOC(=O)[C@H]1[C@H]2COc3ccc(Cl)cc3[C@H]2N2C(=O)CNC(=O)[C@@]12C	-13%
CC12CC3CC(C)(C1)CC(C(=O)NC(=S)N1CCOCC1)(C3)C2	18%
O=C(NNC(=O)c1ccc(-c2ccc([N+](=O)[O-])cc2)o1)c1ccncc1	3%
Cn1c(=N)n(CC(=O)c2ccc(F)cc2)c2ccccc21	-18%
COc1ccccc1NC(=O)c1ccccc1Nc1ccccc1	-9%
O=C(NCCCN1CCCC(O)C1)c1cc(COc2ccc(F)cc2F)on1 (centres undefined)	-18%
CCn1cnc2cc(NC(=O)c3ccco3)ccc21	2%
Cc1cc(C)n(CCN(C)C(=O)CCc2nnc(CCC3CCCCC3)o2)n1	13%
Cc1ccc2[nH]c(=O)c(CN(Cc3ccccc3)C(=S)NCCCN(C)C)cc2c1	-9%
CC(=O)c1c(C)oc2ccc(N(C(C)=O)S(=O)(=O)c3ccc(Br)cc3)cc12	-1%
COc1ccc(-c2nc(-n3c(C)c(C(C)=O)c(C(C)=O)c3C)sc2C)cc1	9%
O=C(c1ccc(Cl)cc1)N1CCn2c1nc1ccccc12	-3%
